# VACV Venus inh – inhibitors of vaccinia virus (Venus reporter) | Vaccinia virus Venus reporter expression, fluorescence | Potency, µM (doses to about 36.5 µM), for the others: top-dose activity change, negative = inhibition, most hits filed as inhibitors | hit rate 0.46% among 330,000; active means well fitted inhibition curve with a large enough effect; inconclusive means small, poorly fitted or top-dose-only effect; inactive means no such curve, though single readings can be large or run the other way; tested in A549 cells; also: nearly all actives have a fitted effect of over 30% in size; inactives centre near -10
# Vaccinia mCherry – vaccinia inhibition (mCherry reporter); Vaccinia virus mCherry reporter infection, fluorescence; about a quarter of the inactives have no number; hit rate 0.63% among 310,000; AID 720579; Potency, µM (top dose mostly 36.5 µM), without a hit: at the top dose activity change, negative = inhibition, actives largely listed as inhibitors; active = well fitted inhibition curve with a large enough effect; inconclusive = small, poorly fitted or top-dose-only effect; inactive = no such curve, though single readings can be large or run the other way; tested in A549 cells; also: nearly all actives have a fitted effect of over 35% in size; inactives centre near -10
# Active calls of the source: *; i = inactive; ? = inconclusive; / = no result given; & = joins results of further samples; [ ] = another dose, or the depositor's remark. % is scaled to controls: 0 for no effect and ±100 for the full control effect; potency is read from the fitted curve at half-maximal effect. This is a random part of the collection. Share with any hit: about 0.87%.
SMILES,VACV Venus inh,Vaccinia mCherry
O=C1CC(c2ccccc2)Cc2[nH]c(=O)c(C(=O)Nc3ccc(OC(F)(F)F)cc3)cc21 (stereo unspecified),5%,-6%
CC(=O)c1ccc(N2CCN(C(=O)c3cc4c(-c5ccccc5F)nn(C)c4s3)CC2)cc1,?,-21%
NS(=O)(=O)c1ccc(CCNC(=O)c2cc(-c3ccccc3)nc3ccccc23)cc1,-13%,-11%
CCC1(c2ccccc2)NC(=O)N(CC(=O)NCCN2C(=O)S/C(=C\c3cccnc3)C2=O)C1=O (stereo unspecified),3%,-5%
CCCOc1cccc(NC(=O)c2cc(C)oc2C)c1,-17%,-1%
O=S(=O)(N1CCCCC1)N1CCN(c2ccc(F)cc2)CC1,-7%,-14%
CNS(=O)(=O)c1cn(CC(=O)N2CCN(c3ccc(C)cc3C)CC2)cc1S(=O)(=O)NC,-6%,-13%
COc1cc2c3c(c1)C(C)=CC(C)(C)N3C(=O)C2=O,0%,-22%
O=C(NC1CCCCNC1=O)c1ccccc1 (stereo unspecified),-4%,i
CCCCC1=CC2=CC(=O)C(C)(OC(=O)CC)C(=O)C2=CN1Cc1ccc(OC)cc1 (stereo unspecified),-11%,i
COc1cc(/C=N/NC(=O)c2sc3nc(C)cc(C)c3c2N)ccc1O,-9%[7.34 µM],-14%[7.34 µM]
N=C1/C(=C\c2ccc(-c3cc(Cl)cc(Cl)c3)o2)C(=O)N=C2SC=C(c3ccccc3)N12,9%,i
COc1ccc(N2CC(NC(=O)c3cc4ccccc4o3)CC2=O)cc1 (stereo unspecified),-3%,1%
Cc1cccc(NC(=O)C(=O)NCCc2csc(-c3ccc(F)cc3)n2)c1C,-3%,-5%
COc1ccc(/C=C/C(=O)Nc2nonc2NC(C)=O)cc1,-13%,-18%
C=CCc1ccc(OCCN2CCc3ccccc3C2)c(OC)c1,-10%,i
Cc1cc2ccccc2cc1CN1CCOCC1,-16%,-4%
O=C(CN1CCOCC1)Nc1ccc(N2CCN(c3ccccc3)CC2)c(F)c1,-15%,-19%
CN(Cc1ccccc1)c1nc(-c2ccc([N+](=O)[O-])cc2)nc2ccccc12,-11%,i
CCC(C)NC(=O)c1ccc2c(SCC(=O)O)c3c(nc2c1)CCCC3 (stereo unspecified),-7%,-11%
CC(C)NC(=S)N=Nc1c(O)[nH]c2ccc([N+](=O)[O-])cc12,-26%,-30%
CCOC(=O)[C@H](CCc1ccccc1)N[C@H]1CCc2ccccc2N(CC(=O)O)C1=O,-3%&-4%,-8%
CCOc1cc(C(c2c(C)[nH][nH]c2=O)c2c(C)[nH][nH]c2=O)ccc1O,-3%,-11%
FC(F)(F)c1cc(CCN2C(=S)NC[C@@H]2Cc2ccccc2)cc(C(F)(F)F)c1,-18%,-2%
Cc1ccc(NC(=O)c2cc(S(=O)(=O)N3CCCCC3)c[nH]2)cc1C,-6%,i
O=C(c1ccc2c(c1)OCO2)N1CCCC(c2ccccc2)C1 (stereo unspecified),-9%,-8%
Cc1nc2c(OCc3ccc(C(F)(F)F)cc3)cccn2c1N(C)C(=O)CCC1CCCC1,?,-20%
CCCCN(C)CCNC(=S)Nc1ccc2nc(N3CCN(CC)CC3)cc(C)c2c1,?,?
COc1ccc(NC(=O)c2cc(F)cc(F)c2)cc1S(=O)(=O)N1CCCCC1,-12%,-17%
CC(=O)OC(Cn1nc(C)cc1C)c1ccccc1 (stereo unspecified),-10%,-12%
Cc1nnc(SCc2ccon2)n1-c1ccccc1,1%,-8%
CCOC(=O)c1c(-c2ccc(C)o2)csc1N,-8%,i
Nc1nc2ccc(Cl)cc2cc1C(=O)NCc1ccc(Oc2ccccc2)cc1,-3%,2%
O=S(=O)(c1ccc(Cl)cc1Cl)n1ccc2cccnc21,-17%,i
O=C(Nc1nnc(-c2ccccc2)s1)c1ccc(F)cc1,-12%,i
COc1ccc2oc(C(=O)OCC(=O)N3CC(C)OC(C)C3)c(C)c2c1 (stereo unspecified),-10%,-12%
COC1=C(C)C(=O)c2c(c(COC(N)=O)c3n2C[C@@H]2[C@@H]3N2C)C1=O (stereo partly specified),11µM*,-28%
Cc1cccc(-c2nc3ccccc3c(=O)n2-n2cccc2)c1,-14%,/
CCCOc1ccc(-c2cn3ccccc3n2)cc1[N+](=O)[O-],-25%,-13%
COc1ccc(/C=N/NC(=O)c2nc(Cl)c(Cl)c(N)c2Cl)cc1COc1ccc(F)cc1F,-18%,/
COc1ccccc1CCC(=O)Nc1ccc2c(c1)c(=O)n(C)n2-c1cccs1,?,?
CSc1ccc(/C=N/n2c(C)nnc2C)cc1,-13%,-21%
CCCc1nc(NC2CCCCC2)c(C#N)c2c1COC(C)(C)C2,-17%,-2%
CCC[C@H]1CN(c2ccccc2)C(=O)[C@@H]1CC(=O)Nc1ccc(Br)cc1,-8%,-6%
COc1ccc2cc3cc(C(=O)Nc4ccccc4C)oc3nc2c1,?,-13%
COc1cc(OC)cc(C(=O)Nc2ccccc2-c2nnn(CC(=O)Nc3cc(C)on3)n2)c1,1%,-10%
Cc1ccccc1-c1nnn(CC(=O)N(C)CC(=O)Nc2ccccc2C(F)(F)F)n1,-17%,i
COC(=O)c1cc(NS(=O)(=O)c2ccc(N3CCCCCC3)c([N+](=O)[O-])c2)cc(C(=O)OC)c1,-6%,/
COc1cc(OC)cc(C(=O)NCC(=O)NC(C)CCc2ccccc2)c1 (stereo unspecified),-15%,-19%
CN(C)Cc1c(O)ccc2c(=O)c(-c3ccccc3Cl)c(C(F)(F)F)oc12,-9%,i
Fc1ccc(C(c2nnnn2C2CCCCC2)N2CCCC2)cc1 (stereo unspecified),-9%,i
COc1ccc(S(=O)(=O)NNC(=O)Cc2csc(C)n2)cc1[N+](=O)[O-],-10%,-7%
NC[C@@H]1O[C@H](C23CC4CC(CC(C4)C2)C3)Cc2c1ccc(O)c2O,?,?
CN1N=C(c2ccc(F)c(F)c2)CSC1=NCc1ccccc1,6%,i
CC(C)CC(NC(=O)OC(C)(C)C)c1cn([C@@H](Cc2ccc(O)cc2)C(=O)N2CCN(C(=O)OC(C)(C)C)CC2)nn1 (stereo partly specified),-23%,0%
COc1ccc(-c2cc(C(F)(F)F)n3nc(C(=O)Nc4c(C)n(C)n(-c5ccccc5)c4=O)cc3n2)cc1,-1%,i
COc1ccc(-c2cn(Cc3ccc(C(=O)NCc4ccc(C)cc4)cc3)c(C(C)N)n2)cc1 (stereo unspecified),?,-17%
O=C(CNC(=O)c1ccccc1)OCC(=O)c1ccccc1,-5%,41%[activator]
O=C(c1ccc(S(=O)(=O)Nc2cccc(C(F)(F)F)c2)cc1)N1CCN(c2ccccc2O)CC1,-16%,i
CC1CCC2(CC1)NC(=O)N(CC(=O)Nc1ccccc1-c1ccccc1)C2=O (stereo unspecified),-17%,-1%
# Carrying on:
SMILES,VACV Venus inh,Vaccinia mCherry
CCCN(C(=O)c1cc2c(=O)oc3ccccc3c2s1)c1cccc(Cl)c1,?,?
CCN(CC)CCCn1c2c(c(SCC(=O)Nc3cc(C)cc(C)c3)nc1=O)CCC2,-7%,-10%
COc1cc(C2c3cc4c(cc3C(OC(C)=O)[C@H]3COC(=O)C23)OCO4)cc(OC)c1OC (stereo partly specified),-31%&-13%,-36%&-16%
O=C(NC(=S)NCCN1CCOCC1)c1ccc(Cl)cc1Cl,-16%,/
CCS(=O)(=O)N1CCC2(CC1)OCCN2S(=O)(=O)c1ccccc1,0%,i
COc1ccc(CNC(=O)c2sc(=O)n(Cc3cc(C(C)=O)ccc3OC)c2C)cc1,15%,31%[activator]
O=C(CN1C(=O)NC2(CCCCC2)C1=O)Nc1ccc(N2CCOCC2)cc1,-17%,i
C=CCn1c(O)c(/C(C)=N/N2CCCCCC2)c(=O)[nH]c1=O,-11%,-4%
CCN1C(=O)/C(=C\C=C\c2ccccc2[N+](=O)[O-])SC1=S,-8%,?
COc1ccc2nc(N)sc2c1,-11%,-20%
O=C(NC1CCCC1)C(=O)c1c[nH]c2ccccc12,-4%,i
COc1ccc(-c2oc3ccccc3c2C(=O)OCc2ccc(O)cc2)cc1,?,-14%
Cc1ccccc1CSc1nncn1N,-15%,i
CCOC(=O)c1sc(=NC(=O)c2cccc(Br)c2)n(C)c1C,-5%,-17%
CC(=O)c1ccc(OCCOc2ccc(C#N)cc2)cc1,-1%,-14%
Nc1ncnc2c1cnn2-c1ccccc1,-19%,-1%
Cc1ccc(C)c(CN2C(=O)c3ccccc3Sc3ccc(C(=O)N4CCC5(CC4)OCCO5)cc32)c1,-21%,-20%
Cc1cc(OCCCCOc2ccc(C#N)cc2)ccc1[N+](=O)[O-],-21%,-12%
CCOc1cccc(C=NNc2ccc(S(=O)(=O)Nc3ccccc3C(=O)O)cc2[N+](=O)[O-])c1O,-2%,-2%
CCOc1ccc(-n2c(=S)sc3c(=O)[nH]c(SCC(=O)NC4CCCCC4)nc32)cc1,-1%,i
Cc1noc(C)c1-c1ccc(C(=O)N2CCN(C)CC2)c2occc12,-3%,-4%
Cc1onc(-c2ccccc2)c1C(=O)NCc1cccnc1,-4%,i
c1ccc(Cn2c(-c3ccccc3)c[n+]3c2SCCC3)cc1,-16%,-12%
CCCc1ccc(OCCNC(C)=O)cc1,-9%,i
Cc1c(C(=O)O)oc2c1/C(=N\O)CC(C)(C)C2,-1%,-1%
CCC(C)(C)NC(=O)c1sccc1Oc1ccc(F)cc1[N+](=O)[O-],-9%,-12%
CN(C(=O)c1ccc(S(=O)(=O)NC2CCCC2)cc1)C1CCCCC1,-18%,-9%
N=c1c2ccccc2nc2n1CCCCCCC2,-14%,-11%
N#CC1(c2ccccc2)CCN(S(=O)(=O)c2ccc(OC(F)(F)F)cc2)CC1,-2%,-14%
COc1cc(/C(C)=N/NC(=O)CSc2nncn2C)ccc1OCc1ccccc1Cl,3%,-11%
COc1ccc(N/N=C(\C=N\O)C(=O)c2ccc(OC)cc2)cc1,?,-23%
COc1ccc2[nH]c3c(c2c1)CCN1C(=O)C(CC(=O)NC(C)(C)C)C[C@H](C(=O)N(C(C)C)C(C)C)[C@@]31C (stereo partly specified),?,i
O=S1(=O)CC=C(CSc2nc3ccccc3[nH]2)C1,-3%,/
COc1ccc(NC(=O)CSc2nnc3c4c(nc(-c5ccccc5)n23)CC(C)(C)OC4)cc1,-9%,7%
O=C(NCc1ccc2c(c1)OCO2)C1CCN(c2ccc(S(=O)(=O)N3CCCC3)cc2)CC1,-20%,-29%
COc1ccc2oc(C(=O)N3CCN(C(=O)c4ccco4)CC3)c(C)c2c1,-8%,i
O=C1CN(/N=C/c2ccc(-c3ccc([N+](=O)[O-])cc3)o2)C(=O)N1,-9%[60.7 µM],i
COc1ccc(S(=O)(=O)N2CCOC23CCN(S(=O)(=O)c2ccc(F)cc2C)CC3)cc1,-15%,-4%
C=CCn1c(SCc2csc(-c3ccc(C)cc3)n2)nnc1-c1ccccc1OC,?,?
O=C(O)Cc1ccc(NC(=O)c2ccc3c(c2)C(=O)N(Cc2ccccc2)C3=O)cc1,-9%,i
O=S(=O)(c1ccc2c(Cl)cccc2c1)N1CCN(c2nc(-c3cccs3)nc3ccccc23)CC1,-14%,-2%
O=C(Nc1ccccc1C(=O)O)c1ccc(Br)c(S(=O)(=O)NCc2ccccc2)c1,-4%,i
COc1ccccc1N1CCN(C(=O)c2c(-c3c(Cl)cccc3Cl)noc2C)CC1,-23%,/
COc1ccccc1OCCCn1c(=O)oc2ccccc21,-9%,/
CCOc1ccc2nc(NC(=O)CCn3cccc3)sc2c1,-12%,-29%
Cc1ccc(/C=C2\SC(=S)N(CCCC(=O)NC3CCCC3)C2=O)cc1,-13%,-10%
CCNc1nc2c(cnn2C)c(=O)[nH]1,-7%,-12%
COc1ccc2[nH]c3c(=O)n(CCCCC(=O)NCCN4CCCC4)c(=S)[nH]c3c2c1,-6%,-7%
COc1cccc(NC(=O)C(OC(=O)c2cnc(C)cn2)c2ccccc2)c1 (stereo unspecified),-9%,i
CCS(=O)(=O)N1CCN(S(=O)(=O)c2ccc3ccccc3c2)CC1,-4%,-5%
CCCC[C@H]1COCCS(=O)(=O)N1Cc1ccccc1F,-14%&-20%,i
CCN(C[C@H]1N[C@@](Cc2ccccc2)(C(=O)OC)[C@H]2C(=O)N(C)C(=O)[C@@H]12)C(=O)Nc1ccc(Cl)cc1,-15%,i

# Source: PubChem BioAssay
